# Vaccinia Venus: inhibitors of vaccinia virus (Venus reporter); Vaccinia virus Venus reporter expression, fluorescence; Potency, µM (highest dose often 36.5 µM), for inactives: top-dose activity change, negative = inhibition, most hits filed as inhibitors; 330,000 compounds, 0.46% hits; AID 720580; active means well fitted inhibition curve with a large enough effect; inconclusive means small, poorly fitted or top-dose-only effect; inactive means no such curve, though single readings can be large or run the other way; tested in A549 cells; further: nearly all actives have a fitted effect of over 30% in size; inactives centre near -10
# Vaccinia mCherry: vaccinia inhibition (mCherry reporter); Vaccinia virus mCherry reporter infection, fluorescence; about a quarter of the inactives have no number; Potency, µM (titrated, usually from 36.5 µM), inactives show at the highest dose activity change, negative = inhibition, hits mostly inhibitors; 310,000 compounds, 0.63% hits; active = well fitted inhibition curve with a large enough effect; inconclusive = small, poorly fitted or top-dose-only effect; inactive = no such curve, though single readings can be large or run the other way; tested in A549 cells; further: nearly all actives have a fitted effect of over 35% in size; inactives centre near -10
# Numbers without * were called inactive; i = inactive; ? = inconclusive; / = no result given; & = joins results of further samples; [ ] = another dose, or the depositor's remark. On the % scale 0 is the no-effect control and ±100 the full control effect; potency means the concentration at half of the fitted maximal effect.
# Results follow in this order: Vaccinia Venus, Vaccinia mCherry
> CC(Cc1ccccc1)C(=O)NCc1ccncc1 (stereo not given)
 : -13.5%, i
> O=C1NC[C@H](Cc2ccccc2)N(C[C@H]2CCCN2C[C@H](Cc2ccccc2)N2C[C@H](Cc3ccc(O)cc3)N(CC3CCCCCC3)C(=O)C2=O)C1=O
 : ?, ?
> CC(NC(=O)CN1CCN(Cc2ccc(Cl)cc2)C1=O)c1ccc2c(c1)OCCO2 (stereo not given)
 : -20.5%, -29.5%
> O=C(NCc1cccc(C(F)(F)F)c1)C1CCC(=O)N(C2CCCCCC2)C1 (stereo not given)
 : -12.6%, -19.9%
> Cc1csc(NC(=O)C2=COCCO2)n1
 : -13.5%, -13.1%
> COc1cccc(NC2=NCCCS2)c1
 : -4.3%, -21.4%
> CC1C(=O)N(Cc2cn(Cc3ccco3)nn2)CCS(=O)(=O)N1Cc1ccc(-c2ccccc2Cl)cc1 (stereo not given)
 : -18.9%, 0.4%
> O=C(COc1ccccc1[N+](=O)[O-])N1CCCc2ccccc21
 : -4.9%, -22.5%
> NC(=O)C1(Nc2ccc(-c3ccc(Cl)cc3)cc2)CCCC1
 : -24.2%, ?
> CCn1c(SCC(=O)NNC(=O)c2ccc(C)cc2)nnc1C(C)C
 : -12.5%, -7.3%
> CN1C(=O)c2ccccc2OC1(C)Cc1ccccc1 (stereo not given)
 : -17.8%, -18.5%
> CCCCOc1ccc(C(=O)NCC(=O)N2CC(C)OC(C)C2)cc1 (stereo not given)
 : -10.0%, -14.3%
> CCCCC[C@@H](C)N1C[C@H](COCc2ccccc2)Oc2cc(N3CCC[C@@H]3COC)ccc2S1(=O)=O
 : 11.6%, 13.4%
> c1ccc(C2(NC3=NCCO3)CCCCC2)cc1
 : 3.98µM*, ?
> COc1cccc(C(=O)OCC(=O)NCCC2=CCCCC2)c1
 : -10.7%, -12.1%
> O=C(NN1CCN(Cc2ccccc2Cl)CC1)c1ccc(Cl)cc1
 : -11.4%, -6.5%
> CCc1ccc(NS(=O)(=O)c2cccc3nonc23)cc1
 : -2.8%, 4.2%
> O=C(/C=N/O)Nc1cccnc1
 : -4.4%, -7.6%
> Cc1c(C#N)c2ncnc(N)c2n1-c1ccccc1
 : 15.2%, /
> Cc1cccc(N(C)C(=O)CCS(=O)(=O)c2ccc3c(c2)oc(=O)n3C)c1
 : 3.6%, -0.7%
> COC(=O)CSc1nc(C)cc(C)c1C#N
 : -9.1%, -14.7%
> Clc1c(-c2ccccc2)nnn1-c1ccccc1
 : -11.6%, i
> CN(C)c1cccc(NC(=O)C2(C)CC2(Cl)Cl)c1 (stereo not given)
 : -7.9%, -14.0%
> Nc1ncnc2c1ncn2[C@@H]1O[C@H](CNC(=O)[C@H]2CCC(=O)N2)[C@@H](O)[C@H]1O
 : -14.2%, -10.9%
> CCN(CC(=O)NC(C)(C)C)C(=O)c1cccc(S(=O)(=O)N2CC3(C)CC2CC(C)(C)C3)c1 (stereo not given)
 : -11.0%, i
> O=C(COc1ccc(/C=N/NC(=O)c2ccncc2)cc1)Nc1ccc([N+](=O)[O-])cc1
 : -0.9%, ?
> O=C(NCc1ccc(Cl)cc1)C(=O)NCC(c1ccco1)S(=O)(=O)c1cccs1 (stereo not given)
 : -16.9%, -16.4%
> O=C(NC1CCCCCC1)c1ccc2c(c1)sc1nc(-c3ccc(F)cc3)cn12
 : -24.7%, ?
> COc1ccc(CC2C(=O)OC(C)(C)OC2=O)cc1
 : -8.3%, /
> O=C(NN1C(=O)CSC1=S)c1cccnc1
 : 117.0%[activator], 60.8%[activator]
> O=C(CSc1nc(-c2ccccc2)cc(=O)[nH]1)Nc1ccc(Br)cc1
 : -18.2%, i
> COc1cc(C(=O)Nc2nonc2-c2ccc(Cl)cc2)cc(OC)c1OC
 : ?, -9.3%
> O=C(Nc1ccccc1C(=O)O)c1cc(S(=O)(=O)Nc2ccccc2)ccc1Cl
 : -13.1%, -8.9%
> COCCCNC(=O)C(=O)Nc1c2c(nn1-c1cccc(Cl)c1)CSC2
 : -8.2%, -7.8%
> C/C(=N\NC(=O)c1nnn(-c2nonc2N)c1-c1ccc2c(c1)OCO2)c1ccccc1
 : -16.9%, -0.6%
> N/C(COc1ccccc1)=N\NC(=O)c1cccnc1Oc1ccccc1
 : -5.2%, i
> CCOC(=O)c1cnc2cc(-c3ccc(C)cc3)nn2c1-c1ccccc1
 : -8.9%, -12.7%[1.46 µM]
> Cn1c(=O)c2cc(NC(=O)NCc3ccc(Cl)cc3Cl)ccc2n1Cc1ccc(F)cc1
 : -20.8%, -8.5%
> COc1ccccc1CNC(=O)[C@H](C)NC(=O)C1CCN(C(=O)[C@@H](N)Cc2ccccc2)CC1
 : 4.8%, 0.5%
> COc1ccc(/C=N\NC(=O)c2ccc(F)cc2)cc1COc1ccccc1C(N)=O
 : -14.8%, -21.6%
> Cc1cc(C)n(CC(=O)N2CCC(n3c(C(C)C)nc4cccnc43)CC2)n1
 : 17.2%, 0.1%
> Nc1c(-c2nc(-c3ccc4c(c3)OCO4)cs2)c2ccccn2c1C(=O)c1ccc(Cl)cc1
 : 1.0%, -1.0%
> CC1=NCCc2c1[nH]c1cc(O)ccc21
 : 21.8%&25.0%, -13.9%&-9.8%
> CCOC(=O)c1cnn2c(SC)ncnc12
 : 3.1%, i
> COC(=O)c1cc(NC(=O)CCc2c(C)nc3c4c(C)cc(C)nc4nn3c2C)cc(C(=O)OC)c1
 : -18.4%, -10.4%
> COc1ccc(C(=O)NCCS(=O)(=O)N2CCc3ccccc3C2)cc1OC
 : -13.0%, -0.8%
> COc1ccc(-c2cc3ncc(C(=O)c4cc([N+](=O)[O-])ccc4O)cn3n2)cc1
 : -18.6%, -28.8%
> O=C(N/N=C\c1ccc(F)cc1)c1ccc(F)cc1
 : -5.4%, -0.1%
> COc1ccccc1C(=O)NCCc1nc2ccccc2n1C
 : -11.9%, i
> O=C(Nc1ccnn1C1CCN(C(=O)CCc2ccc(F)cc2)CC1)C1CCOC1 (stereo not given)
 : -11.8%, i

# Remaining list, next part
# Results follow in this order: Vaccinia Venus, Vaccinia mCherry
> Cc1cc(C)cc(N(C(=O)Cn2nnc3ccccc32)C(C(=O)NCc2ccco2)c2ccncc2)c1 (stereo not given)
 : 0.4%, /
> CCOc1ccc(C(=O)n2cnnc2N)cc1
 : -2.8%, 10.9%
> N#Cc1ccc(C(=O)NN2C(=O)NC3(CCCCC3)C2=O)cc1
 : -18.2%, -3.8%
> OC(COc1cc(Cl)c(Cl)cc1Cl)CN1CCN(c2ncccn2)CC1 (stereo not given)
 : -15.4%, -25.5%
> CCOC(=O)CC1C(=O)NCCN1S(=O)(=O)c1ccccc1 (stereo not given)
 : -12.6%, i
> Cc1ccc(N2C(=O)c3ccccc3C2C(=O)c2ccc(O)cc2O)cc1 (stereo not given)
 : -17.2%, i
> CCOC(=O)c1ccc(NC(=O)CCCn2c(=O)c3cccn3c3ccccc32)cc1
 : -18.4%, -14.7%
> CC1(C)CC(=O)c2cn3nc(C(F)(F)F)nc3nc2C1
 : -8.0%, -17.0%
> CCCNC(=O)C(Cc1ccccc1)NS(=O)(=O)c1ccc2c(c1)CCC(=O)N2 (stereo not given)
 : -4.3%, 31.0%
> Cc1cc2nccc(C)c2cc1C
 : -14.3%, -7.3%
> CC(CCc1ccccc1)NC(=O)c1ccc(-n2cncn2)c([N+](=O)[O-])c1 (stereo not given)
 : -6.2%, -16.6%
> COc1ccc(S(N)(=O)=O)cc1C(=O)NC1CCCc2ccccc21 (stereo not given)
 : -13.7%, -22.4%
> CN1CCC(N(C)C(=S)NC(=O)c2cc(-c3cccc(Br)c3)nc3ccccc23)CC1
 : -6.9%, -3.5%
> O=C(CCN1C(=O)/C(=C/c2ccccc2Cl)SC1=S)NNC(=O)c1ccccc1O
 : 45.0%[activator], ?
> CCOc1ccc(N2C(=O)CC(N3CCOCC3)C2=O)cc1 (stereo not given)
 : -9.9%, -0.5%
> COc1cc(/C=N/NC(=O)c2ccc3nc[nH]c3c2)cc(OC)c1OC(C)=O
 : -4.1%, i
> CCOc1ccc(NC(=O)CCN2CCN(C)CC2)cc1
 : -4.1%, -14.5%
> COc1ccc(NC(=O)c2ccc(C#N)cc2)cc1NS(=O)(=O)c1ccc(F)cc1
 : -16.9%, -28.3%
> COc1cc2[nH]c(=O)c(C(=O)NCCCN3CCCCC3)c(O)c2cc1OC
 : -1.8%, -12.6%
> COc1ccc(C)cc1NC(=O)C(c1ccccc1)N1CCN(CC(=O)NC2CC2)CC1 (stereo not given)
 : -18.5%, i
> COc1cc(/C=N/NC(=O)C2CCN(CC(O)COCc3ccccc3)CC2)cc(OC)c1OC (stereo not given)
 : -8.0%, -0.1%
> COc1ccc(S(=O)(=O)NCC(c2cccs2)S(=O)(=O)c2ccc(C)cc2)cc1F (stereo not given)
 : -12.3%, -10.5%
> CCOc1cc(CNCC(C)C)c(Cl)cc1OCC(=O)Nc1ccccc1
 : -17.6%, -20.9%
> CCc1cc2c(-c3ccccc3)cc(=O)oc2c(CN2CCOCC2)c1O
 : 8.6%, -4.9%
> NS(=O)(=O)c1ccc(CCNCc2cc(Br)ccc2OCc2ccccc2)cc1
 : ?, -20.1%
> Oc1ccccc1Cc1c(O)ccc2ccccc12
 : ?, -22.3%
> COc1ccc(OC)c(N(CC(=O)NCC2CCCO2)S(=O)(=O)c2ccccc2)c1 (stereo not given)
 : -3.5%, -13.1%
> Cc1ccc(NC(=O)c2cccnc2)cc1S(=O)(=O)N(C)C
 : -9.8%, 4.2%
> Clc1ccc(CCNc2nc3ccccc3n3nnnc23)cc1
 : 0.8%, -17.7%
> Cc1ccc(-n2c(SCC(=O)N/N=C/c3ccccc3OCC(=O)O)nc3ccccc3c2=O)cc1
 : -10.5%, i
> Nc1ncnc2c1ncn2[C@@H]1O[C@H](CNC(=O)OC[C@@H](N)Cc2ccccc2)[C@@H](O)[C@H]1O
 : -5.4%, -12.5%
> Cc1ccc(S(=O)(=O)c2nc(-c3ccco3)oc2SCC(=O)NCC2CCCO2)cc1 (stereo not given)
 : -6.1%, i
> CCOc1cc(C(=O)Nc2ccc([N+](=O)[O-])cn2)cc(OCC)c1OCC
 : -8.7%, -7.8%
> Cc1ccc(OCC(=O)N2CCN(C(=O)c3cccnc3)CC2)cc1
 : -10.3%, -10.9%
> OCc1cccc(-c2csc(C(O)(c3ccccc3)C(F)(F)F)n2)c1 (stereo not given)
 : -4.9%, i
> Cc1ccc(S(=O)(=O)c2nc(S(C)(=O)=O)sc2N(C)Cc2ccccc2)cc1
 : -11.3%, -17.4%
> COc1ccc(OCCC(=O)OCC(=O)NCCC2=CCCCC2)cc1
 : -14.7%, i
> CCOC(=O)C(NCc1ccccc1OC)(NC(=O)CC)C(F)(F)F (stereo not given)
 : -13.4%, -10.5%
> CCOC(=O)c1cccc2c(=O)c(C(=O)c3ccc(Cl)cc3)c(C(=O)OC)[nH]c12
 : -5.8%, i
> O=C(O)c1oc2ccccc2c1CSc1ccc(Cl)cc1
 : -6.7%, i
> COc1ccc(C=C2C(=O)NC(=S)NC2=O)cc1
 : -5.8%, -0.6%
> COc1ccc(CCNc2ncnc3c2nnn3Cc2ccccc2)cc1
 : -20.7%, -23.9%
> CCOc1ccc(C(=O)NC2CC3CCCC(C2)N3Cc2ccccc2)cc1 (stereo not given)
 : -12.5%, -8.5%
> Cc1cccc(C)c1NC(=O)C(c1ccccc1)N1CCC2(CC1)OCCO2 (stereo not given)
 : -8.3%, -19.3%
> C[C@H](NC(=O)C1CC(=O)N(c2ccc3c(c2)OCCO3)C1)C(=O)NC1CCCC1 (stereo not given in full)
 : -15.0%, -2.3%
> CCc1sc(C(=O)N(CCCOC)c2c(N)n(CC(C)C)c(=O)[nH]c2=O)cc1C
 : -11.5%, i
> O=C(Nc1cc(Cl)cc(Cl)c1)N1CCCN(Cc2ccccc2)CC1
 : -26.5%, -16.8%
> COc1ccccc1N1CCN(C(=O)COc2cccc3ccccc23)CC1
 : -9.6%, -14.4%
> O=C(NC(=S)N1CCN(C/C=C/c2ccccc2)CC1)c1c(F)cccc1F
 : 0.7%, -3.3%
> Cn1c(=O)c2c(ncn2CC(=O)N2CCN(C(=O)c3ccco3)CC2)n(C)c1=O
 : -2.7%, -7.5%

# (next part)
# Results follow in this order: Vaccinia Venus, Vaccinia mCherry
> Cn1nc(C(C)(C)C)cc1C(=O)N1CCCCC1c1cc(C(=O)NCc2ccc(F)cc2)no1 (stereo not given)
 : -12.6%, 15.6%
> C[C@H](CO)N1C[C@H](C)[C@@H](CN(C)S(=O)(=O)c2ccccc2)Oc2c(NS(=O)(=O)c3ccc(F)cc3)cccc2C1=O
 : -4.2%, i
> COc1ccc(CCNC(=O)COC(=O)c2ccc(Br)o2)cc1
 : -6.7%, -13.9%
> CC1(C)NC(=O)N(CC(O)CN(c2ccccc2)S(=O)(=O)c2ccccc2)C1=O (stereo not given)
 : 2.0%, -11.0%
> O=C1OC(Nc2ccc(Br)cn2)c2ccccc21 (stereo not given)
 : 4.2%, -4.8%
> O=C(O)C1C=CC(C(=O)O)c2ccccc21 (stereo not given)
 : -4.4%, i
> COc1ccc(CN(CC(=O)NC2CCCC2)C(=O)CN2C(=O)COc3ccccc32)cc1
 : -11.0%, -14.5%
> O=c1ccn(Cc2ccc(F)cc2)c2ccnc(C(F)(F)F)c12
 : -14.9%, -2.4%
> Cc1nnc(Cc2ccco2)c2n[nH]c(C)c12
 : -4.5%, -21.4%

# Structures from the list above with a tert-butyl group (2):
# Results follow in this order: Vaccinia Venus, Vaccinia mCherry
> CCN(CC(=O)NC(C)(C)C)C(=O)c1cccc(S(=O)(=O)N2CC3(C)CC2CC(C)(C)C3)c1 (stereo not given)
 : -11.0%, i
> Cn1nc(C(C)(C)C)cc1C(=O)N1CCCCC1c1cc(C(=O)NCc2ccc(F)cc2)no1 (stereo not given)
 : -12.6%, 15.6%

# Screening results deposited in PubChem BioAssay by National Center for Advancing Translational Sciences (NCATS).
